Cruzain inh noDet: inhibitors of Trypanosoma cruzi cruzain without detergent; P25779; purified cruzain, Z-FR-AMC fluorescence, no detergent; Potency, µM, inactives show max response, negative = inhibition, hits mostly inhibitors; 200,000 compounds, 2.3% hits; AID 1476; active = well fitted curve in the direction sought with a large enough effect; inconclusive = small, poorly fitted or top-dose-only effect, or another doubt; inactive = no such curve, though single readings can be large; an effect the other way counts as inactive or inconclusive;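 note: plate controls were enzyme without inhibitor for no effect and buffer without enzyme for full effect; nearly all actives have a fitted effect of over 40% in size; top concentration of the series not given in the record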
Target sequence (P25779 123-467 limits assumed): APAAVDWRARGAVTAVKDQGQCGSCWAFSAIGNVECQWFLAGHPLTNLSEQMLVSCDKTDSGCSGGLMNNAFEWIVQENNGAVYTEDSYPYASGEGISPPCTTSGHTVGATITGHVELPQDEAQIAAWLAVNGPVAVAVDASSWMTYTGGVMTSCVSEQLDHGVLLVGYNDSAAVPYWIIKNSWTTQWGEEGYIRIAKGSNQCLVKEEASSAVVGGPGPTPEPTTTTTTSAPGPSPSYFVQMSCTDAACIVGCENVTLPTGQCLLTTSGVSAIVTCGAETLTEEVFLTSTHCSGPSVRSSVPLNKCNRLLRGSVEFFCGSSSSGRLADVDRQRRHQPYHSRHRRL
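Detergent-free condition (0.00005% Triton X-100) in acetate buffer pH 5.5 with DTT. 1.5 nM enzyme and compound were pre-mixed 15 min, then 2 uM Z-FR-AMC substrate added; reaction progress from fluorescence change between first and third reads (60 s).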
LASV entry inh: blocks Lassa virus binding to or entry into cells | AID 540256 | Potency, µM (highest dose often 37.9 µM), for inactives: top-dose activity change, negative = inhibition, actives largely listed as inhibitors | Lassa virus pseudotype entry inhibition, cell reporter; control for the full effect not named in the record | 300,000 compounds, 1.2% hits; active means well fitted inhibition curve with a large enough effect; inconclusive means small, poorly fitted or top-dose-only effect, or effect the other way; inactive means flat fitted curve, though single readings scatter; tested in HEK293 cells; note: % is set by controls: 0 for no effect and ±100 for the full control effect; nearly all actives have a fitted effect of over 50% in size; luciferase read-out
StopGo reporter: lowers the luciferase signal of an FMDV 2A StopGo reporter | human cells with a luciferase reporter of 2A StopGo recoding; control for the full effect not named in the record | Potency, µM (highest dose often 57.9 µM), for the others: at the top dose signal change, negative = less light | 410,000 compounds, 1.2% hits | AID 1159524; active = well fitted falling curve with a large enough effect; inconclusive = small, poorly fitted or top-dose-only effect; inactive = no such curve, though single readings can be large or run the other way; tested in HEK293T cells; note: % is set by controls: 0 for no effect and ±100 for the full control effect; nearly all actives have a fitted effect of over 45% in size; luciferase light after 4 h
RE007 growth inh: less growth of the S. pombe RE007 Vpr strain; Potency, µM (series often up to 92.2 µM), without a hit: at the top dose activity change, negative = less growth; S. pombe RE007 Vpr strain, BacTiter-Glo ATP luminescence, 24 h; control for the full effect not named in the record; 360,000 compounds, 0.21% hits; active = well fitted falling curve with a large enough effect; inconclusive = small, poorly fitted or top-dose-only effect; inactive = no such curve, though single readings can be large or run the other way;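 note: % is set by controls: 0 for no effect and ±100 for the full control effect; nearly all actives have a fitted effect of over 50% in size; the assay follows cell death caused by Vpr and the record does not say whether a fall means rescue or toxicity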
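Fission yeast strain RE007, carrying one chromosomally integrated HIV-1 vpr copy, was seeded at OD 0.01 in PMG+AL medium with 23 nL pinned compound. After 24 h at 30 °C and 99% humidity, viability was read by BacTiter-Glo luminescence.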
Marburg entry inh: blocks Marburg virus binding to or entry into cells. Marburg virus pseudotyped entry inhibition, cell reporter; control for the full effect not named in the record; about a third of the inactives were read at about 46 µM. Potency, µM (top dose mostly 37.8 µM), for the others: at the highest dose activity change, negative = inhibition, most hits filed as inhibitors. 300,000 compounds, 1.8% hits. AID 540276; active = well fitted inhibition curve with a large enough effect; inconclusive = small, poorly fitted or top-dose-only effect, or effect the other way; inactive = flat fitted curve, though single readings scatter; tested in HEK293 cells; about a fifth of its hits are not listed in these tables; note: % is set by controls: 0 for no effect and ±100 for the full control effect; luciferase read-out
Cruzain inh Det: blocks cruzain activity in presence of Triton detergent; 200,000 compounds, 0.43% hits; purified cruzain, Z-FR-AMC fluorescence, 0.01% Triton; Potency, µM, without a hit: max response, negative = inhibition, usual class: inhibitors; P25779; AID 1478; active = well fitted curve in the direction sought with a large enough effect; inconclusive = small, poorly fitted or top-dose-only effect, or another doubt; inactive = no such curve, though single readings can be large; an effect the other way counts as inactive or inconclusive;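 note: plate controls were neutral wells for no effect and buffer without enzyme for full effect; nearly all actives have a fitted effect of over 40% in size; top concentration of the series not given in the record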
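Cysteine protease activity tested under reducing, mildly acidic conditions (100 mM sodium acetate pH 5.5, 5 mM DTT) plus 0.01% Triton X-100. Cruzain 1.5 nM; substrate Z-FR-AMC 2 uM; 15 min compound preincubation at room temperature.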
SARS PLP yeast: SARS-CoV PLP inhibition in yeast | Potency, µM (series often up to 32.9 µM), without a hit: at the highest dose activity, positive = growth rescue | AID 485353 | S. cerevisiae expressing SARS-CoV PLpro, growth rescue; control for the full effect not named in the record | 330,000 compounds, 0.19% hits; note: 0% is about no effect; nearly all actives have a fitted effect of over 55% in size; growth read by luminescence after 48 h
NS1 function inh: influenza NS1 inhibition. S. cerevisiae slowed by influenza A NS1, growth recovery by OD600. Potency, µM (highest dose often 46.1 µM), inactives show at the top dose activity, positive = more growth. 270,000 compounds, 0.4% hits; note: actives are rising curves; nearly all actives have a fitted effect of over 50% in size
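Recovery from NS1-induced slow growth read by OD600 in budding yeast switched to galactose assay medium (pH 6.0, -URA) at 1:100 dilution. Compound 23 nl per well; the matching strain lacking NS1 serves as control.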
* hit, by the source's call; ? = inconclusive; / = no result given; & = joins results of further samples; [ ] = another dose, or the depositor's remark. Unless noted, calls come from the whole dose curve; as a rule, active means well fitted rising curve with a large enough effect; inconclusive means small, poorly fitted or top-dose-only effect; inactive means no such curve, though single readings can be large or run the other way. Potency is the fitted concentration of half-maximal effect.

SMILES	Cruzain inh noDet	LASV entry inh	StopGo reporter	RE007 growth inh	Marburg entry inh	Cruzain inh Det	SARS PLP yeast	NS1 function inh
O=C(CSc1nc2ccccc2[nH]1)NCc1ccc(F)cc1	/	?	-1%	-4%	-29%[46.1 µM]	/	0%	/
C=CCN(c1ccccc1)S(=O)(=O)c1cccc(C(=O)N2CC(C)CC(C)C2)c1 (stereo not given)	/	?	-14%	-4%	?	/	-3%	-24%
CCOC(=O)C(CC)n1nc(C)n2c(cc3occc32)c1=O (stereo not given)	3%&3%	15%	0%&-1%	0%	12%[46.1 µM]	-2.8%&-0.7%	-5%	-2%
S=c1[nH]c2ncccc2o1	-5%	5%	-13%	6%	1%	-4.3%	-4%	-1%
Clc1ccc(-c2cn3c(n2)CCC3)cc1	-7%	?	-26%	?	?	-4.3%	1%	-3%
CCN(c1ccccc1)S(=O)(=O)c1cccc(C(=O)NCC(c2ccco2)N2CCCC2)c1 (stereo not given)	/	5%	-18%	-9%	?	/	-12%	16%
CC(C)NS(=O)(=O)c1ccc(NC(=S)NC(=O)c2ccc(-c3ccccc3)cc2)cc1	-7%	-23%	-15%	-22%	?	2.4%	-6%	1%
CCOC(=O)C1=C(N)Oc2cc(C)oc(=O)c2C12C(=O)N1c3c(cccc32)C(C)=CC1(C)C (stereo not given)	?	12%	-15%	-21%	3%	-1.3%	-1%	-49%
COc1c2c(nc3ccccc13)OC(C(C)(O)CO)C2 (stereo not given)	6%&5%&-9%	-6%	-11%	1%	?	-0.3%&-2.4%&8.3%	-1%	0%&4%
CCCCN(C)C(=O)c1cn(C)c2ccc(S(=O)(=O)N(C)C)cc2c1=O	-4%	/	19%	-2%	/	-6.0%	21%	-11%
O=C(NCCc1ccccc1)c1nn(-c2ccccc2Cl)nc1CO	-4%	1%[46.1 µM]	0%	/	9%[46.1 µM]	-2.0%	/	/
O=C(c1ccc(Cl)c(S(=O)(=O)N2CCOCC2)c1)N(Cc1nnc(-c2ccccc2Cl)o1)C1CC1	/	-5%	?	-13%	?	/	-2%	/
CN1CCN(c2nc(-c3cc4ccccc4o3)cs2)CC1	-11%	?	38%[activator]	/	?	-5.1%	-21%	1%
CCCCCOc1ccc(NC(=O)C(=O)NCCC2=CCCCC2)cc1	-7%	10%	-4%	-15%	19%	1.6%	1%	-9%
CC1CN(C(=O)COC(=O)c2cccc(NS(=O)(=O)c3ccccc3)c2)CC(C)O1 (stereo not given)	/	-1%	6%	1%	-6%[46.1 µM]	/	0%	/
CN(CC(=O)Nc1cc(Cl)cc(Cl)c1)Cc1cccs1	/	1%	15%	5%	-15%	/	-8%	-3%
COC(=O)c1ccc(NC2CC(=O)N(c3ccccc3C)C2=O)cc1 (stereo not given)	1%	16%	7%	-5%	-10%	1.5%	-8%	-11%
CSc1nnc2c(n1)[nH]c1c(C)cccc12	-4%	-2%	/	?	3%	-1.8%	4%	-60%
CCCCn1cnc2sc3c(c2c1=N)CCCC3	6%	-2%	-5%	7%	?	2.6%	-3%	2%
O=C1CSC(c2ccccc2)N1c1ccccc1F (stereo not given)	/	/	-17%	-2%	/	/	2%	-3%
O=C(CNC1CCCCCC1)Nc1ccc(N2CCCC2)cc1	-1%	/	/	/	-2%	1.0%	-1%	4%
CC(C)c1ccc(OCc2nnc(SCC(=O)N3CCCCC3)o2)cc1	/	?	0%	-1%	?	/	-3%	2%
CC(=O)Nc1cc(-c2ccccc2)nn1Cc1ccc(Cl)cc1	-1%	3%	/	-1%	4%	1.0%	0%	-11%
Cc1ccc(Cc2cnc(NC(=O)C3Cc4ccc(C)cc4C(=O)O3)s2)cc1 (stereo not given)	-2%	2%[46.1 µM]	-17%	/	15%[46.1 µM]	-0.1%	/	/
CCOc1ccccc1OCCC(=O)Nc1ccc2c(c1)OCO2	/	5%	-13%	11%	-14%	/	2%	/
Cc1ccc(C)c(C(=O)CSc2nc(C)cc(=O)[nH]2)c1	/	/	10%	7%	/	/	-3%	13%
COc1cccc(OCc2cc(C(=O)N(C)C3CC(C)(C)NC(C)(C)C3)no2)c1	/	-15%[46.1 µM]	60%[activator]	0%	?	/	1%	-13%
CCOC(=O)N1CCC(=NNc2ncc(C(F)(F)F)cc2Cl)CC1	/	15%	-17%	1%	-38%[46.1 µM]	/	-3%	/
O=c1[nH]c([N+](=O)[O-])nn1C(c1ccccc1)c1ccccc1	/	/	-20%	7%	/	/	-1%	1%
C#C[C@]1(O)CCC2C3C(=O)C=C4C(Cl)=CCC[C@]4(C)C3CC[C@@]21C (stereo not given in full)	/	0%[46.1 µM]	-22%	-13%	-6%[46.1 µM]	/	/	/
CC(c1ccccc1)C(CC(=O)O)C(=O)Nc1ccc(Cl)c(Cl)c1 (stereo not given)	/	11%[46.1 µM]	0%	-2%	3%[46.1 µM]	/	4%	?
CCOc1ccc(CN(C)CC(=O)Nc2cc(OC)c([N+](=O)[O-])cc2C)cc1	-3%	0%	?	-11%	8%	-2.2%	6%	3%
C[C@H](NC(=O)OC(C)(C)C)C(=O)N/N=C/C1=Cc2ccccc2OC1	/	/	-3%	14%	/	/	-1%	-2%
COc1ccc(C(=O)CSc2nnc(Cn3nnc4ccccc43)n2C)cc1	-1%	0%	/	6%	1%	-9.1%	-9%	-1%
CC1([N+](=O)[O-])COC(C=Cc2ccccc2)OC1 (stereo not given)	/	?	8%	7%	16%[46.1 µM]	/	/	/
CC1CC(C)CN(C(=O)C2CCC(CNS(=O)(=O)c3ccccc3)CC2)C1 (stereo not given)	/	/	-11%	-9%	/	/	-2%	-9%

One compound at a time, from the list above. Values in the order: Cruzain inh noDet	LASV entry inh	StopGo reporter	RE007 growth inh	Marburg entry inh	Cruzain inh Det	SARS PLP yeast	NS1 function inh
CC1CC(C)CN(C(=O)C2CCC(CNS(=O)(=O)c3ccccc3)CC2)C1 (stereo not given) is listed as /	/	-11%	-9%	/	/	-2%	-9%
O=c1[nH]c([N+](=O)[O-])nn1C(c1ccccc1)c1ccccc1 is listed as /	/	-20%	7%	/	/	-1%	1%

Additional compounds
SMILES	Cruzain inh noDet	LASV entry inh	StopGo reporter	RE007 growth inh	Marburg entry inh	Cruzain inh Det	SARS PLP yeast	NS1 function inh
COCCNC(=O)C(c1ccc(O)cc1)N(Cc1ccccc1)C(=O)CCC(=O)Nc1nccs1 (stereo not given)	/	-7%	-4%	11%	0%[46.1 µM]	/	-6%	3%
Cc1cccc(-n2ncc3c2CCCC3NC(=O)CC(F)(F)F)c1C (stereo not given)	/	-21%[46.1 µM]	-22%	17%	?	/	3%	-11%
CCOC(=O)c1ccccc1NC(=O)Cn1cnc2c1c(=O)n(C)c(=O)n2C	-5%	1%	-24%	6%	14%	4.8%	-3%	-4%
O=C(Cn1cnc2c(nnn2Cc2ccc(F)cc2)c1=O)N1CCN(c2ccccc2)CC1	9%	18%	-22%	3%	24%	1.5%	-1%	-8%
NC1=NS(=O)(=O)NC1c1ccc(Br)cc1 (stereo not given)	/	3%[46.1 µM]	10%	4%	-3%[46.1 µM]	/	-1%	8%
Cc1cccc(NC(=O)CN2CCN(CC(=O)NCC3(N4CCCCC4)CCCCC3)CC2)c1C	/	11%	-20%	-19%	?	/	3%	/
COc1ccccc1NS(=O)(=O)NC(=O)c1cn(C)c2ccccc12	/	/	1%	-2%	/	/	0%	-3%
O=C(Nc1cccc(Cl)c1)N1CCC(CN2CCOCC2)CC1	-1%	12%[46.1 µM]	20%	/	/	0.0%	/	/
Cc1cc(N2CCCC2)ccc1NC(=O)CN1C(=O)NC2(CCCCC2)C1=O	/	-13%	-23%	-13%	-23%	/	-5%	/
CCN=C1SC(C(=O)Nc2cccc(C(=O)O)c2)CC(=O)N1CC (stereo not given)	-4%	16%	15%	-1%	-10%	-0.6%	6%	3%
Cc1ccc(-c2ccc(S(=O)(=O)N3CC(C)OC(C)C3)cc2)cc1 (stereo not given)	/	/	-13%	18%	/	/	-1%	-3%
CC(=O)N1CCCc2cc(S(=O)(=O)N3CCN(c4ccccn4)CC3)ccc21	14%	-8%	0%	1%	?	5.1%	3%	-10%
Cn1c(=O)[nH]c(=O)c2c1nc(NCCO)n2CC(O)COc1ccccc1 (stereo not given)	9%	-3%[46.1 µM]	-16%	/	/	-3.0%	/	/
COc1ccc(CNC(=O)CN2CCN(c3ccccc3)CC2)cc1	/	/	-21%	20%	/	/	9%	2%
Cc1sc(CO)c(Sc2ccccc2)c1C(=O)O	2%	/	/	/	0%	-0.5%	-7%	8%
CC(C)c1ccc2nc(N)sc2c1	/	-5%	-25%	-11%	?	/	-29%	/
O=C(COc1ccc(F)cc1)Nc1ccccc1OCc1cc(=O)n2ccccc2n1	-13%	9%[46.1 µM]	-4%	/	/	4.5%	/	/
Cc1ccc(-c2nnc(N3CCN(C(=O)Cn4c(=O)n(C)c5ccccc54)CC3)c3ccccc23)cc1	12%	?	-20%	-4%	0%	3.6%	1%	6%
O=C1NCC(CN(c2ccccc2)c2ccccc2)O1 (stereo not given)	-4%	1%	-16%	-1%	3%	5.7%	2%	8%
COc1ccc(N/N=C(/Oc2ccc([N+](=O)[O-])cc2)C(C)=O)cc1	-11%	0%	6%	9%	-28%	-6.6%	5%	3%
Cc1cc(C)c(C#N)c(N2CCC(C(N)=O)CC2)n1	/	14%	-15%	-10%	3%[46.1 µM]	/	1%	6%
CCCNC(=O)Cc1ncn[nH]1	3%	19%	-10%	10%	-11%	-4.8%	-4%	6%
O=C(COC(=O)c1ccc(NC(=O)C2CC=CCC2C(=O)O)cc1)c1ccccc1 (stereo not given)	/	-9%[46.1 µM]	11%	2%	19%[46.1 µM]	/	1%	2%
CC(=O)c1cccc(S(=O)(=O)Nc2ccc(N3CCOCC3)cc2)c1	/	11%[46.1 µM]	-15%	8%	2%[46.1 µM]	/	0%	2%
COc1ccc(N2C(=O)CC(n3cnc4ccccc43)C2=O)cc1 (stereo not given)	-10%	-1%	-25%	3%	-1%	4.0%	11%	0%
Cc1ccc(OCC(=O)O/N=C(\N)c2ccncc2)cc1C	/	14%	18%	0%	-1%	/	-9%	-22%

Source: PubChem BioAssay
